High-throughput results: PubChem BioAssay, National Center for Advancing Translational Sciences (NCATS)
Vaccinia Venus: vaccinia inhibition (Venus reporter); Vaccinia virus Venus reporter expression, fluorescence; Potency, µM (top dose mostly 36.5 µM), without a hit: top-dose activity change, negative = inhibition, usual class: inhibitors; 330,000 compounds, 0.46% hits; AID 720580; active means well fitted inhibition curve with a large enough effect; inconclusive means small, poorly fitted or top-dose-only effect; inactive means no such curve, though single readings can be large or run the other way; tested in A549 cells; further: nearly all actives have a fitted effect of over 30% in size; inactives centre near -10
Vaccinia mCherry: vaccinia inhibition (mCherry reporter); Potency, µM (top dose mostly 36.5 µM), inactives show top-dose activity change, negative = inhibition, most hits filed as inhibitors; 310,000 compounds, 0.63% hits; Vaccinia virus mCherry reporter infection, fluorescence; about a quarter of the inactives have no number; active = well fitted inhibition curve with a large enough effect; inconclusive = small, poorly fitted or top-dose-only effect; inactive = no such curve, though single readings can be large or run the other way; tested in A549 cells; further: nearly all actives have a fitted effect of over 35% in size; inactives centre near -10
An asterisk follows results filed as active; i = inactive; ? = inconclusive; / = not tested or not shown; & = joins results of further samples; [ ] = remark or other dose. On the % scale 0 is the no-effect control and ±100 the full control effect; potency means the concentration at half of the fitted maximal effect. This is a random part of the collection; about 0.87% have a hit in one of these screens.

SMILES	Vaccinia Venus	Vaccinia mCherry
CN(C)/C=N/c1nc2nccc(-c3ccccc3)n2n1	-7.8%	-0.9%
CCN(CC)CCn1c(=S)[nH]c2cc(C(=O)NCc3ccccc3Cl)ccc2c1=O	0.0%[7.34 µM]	i[7.34 µM]
O=C(Nc1ccc(F)cc1)/C(Cl)=C/c1ccccc1	-10.1%	-21.7%
COC(=O)Cn1c(=NC(=O)C(C)(C)C)sc2c(C)cc(C)cc21	-14.5%	i
C[C@H](NC(=O)Cc1cccc2ccccc12)C(=O)NCc1ccccc1	-15.0%	-24.5%
CCOC(=O)N1CCN(C(=O)c2cnn3ccccc23)CC1	-10.6%	-19.7%
Cc1cccc(C)c1NC(=O)c1cc(S(=O)(=O)N2CCOCC2)cn1C	3.0%	i
CCC(=O)N1CCc2cc(Br)cc(S(=O)(=O)CCC(=O)Nc3ccc(CC)cc3)c21	-3.3%	-1.9%
C[C@H](CO)N1C[C@H](C)[C@@H](CN(C)S(=O)(=O)c2ccc(F)cc2)Oc2c(NC(=O)Cc3ccccc3)cccc2C1=O	-10.7%	i
CCc1nn(CC(=O)N(CC)Cc2ccccc2)c(=O)c2cc3occc3n12	-6.5%	-11.3%
O=C(OC(C(=O)N1CCOCC1)c1ccccc1)c1c2c(nc3ccccc13)CCCC2 (stereo not given)	9.0%	38.4%[activator]
O=C(Nc1ccccc1)Nc1ccncc1	0.5%	-5.2%
COc1ccc(OC)c(N(CC(=O)Nc2ccc3c(c2)OCO3)S(=O)(=O)c2ccccc2)c1	-7.3%	-7.0%
CCN(Cc1ccncc1)C(=S)Nc1ccccc1C	-5.1%	i
Cn1nnc2c(NCc3ccco3)ncnc21	-16.9%	-14.5%
CCOC(=O)c1[nH]c2ccccc2c1NC(=O)c1c(F)cccc1F	-3.6%	-7.3%
Cc1ccc(CN(CC(=O)NC2CCCC2)C(=O)c2csnn2)cc1	-11.6%	-11.7%
COc1ccc(CC(=O)N2CCC(c3ccccc3)C2)cc1 (stereo not given)	-8.3%	-4.1%
O=C(c1ccc(CSc2nc3ccncc3[nH]2)cc1)N1CCN(c2cccc(Cl)c2)CC1	?	?
CCOCC(=O)NC1CCc2cc(OC)c(OC)c(OC)c2-c2ccc(SC)c(=O)cc21 (stereo not given)	?	-23.5%

Compound profiles, from the list above.
Entry for `O=C(Nc1ccccc1)Nc1ccncc1` = Vaccinia Venus = 0.5%; Vaccinia mCherry = -5.2%
Entry for `CCOC(=O)c1[nH]c2ccccc2c1NC(=O)c1c(F)cccc1F` = Vaccinia Venus = -3.6%; Vaccinia mCherry = -7.3%

(listing goes on)
SMILES	Vaccinia Venus	Vaccinia mCherry
C=CCOc1ccc(CNCCc2ccc(S(N)(=O)=O)cc2)cc1	0.0%	i
COC(=O)Cc1nnc(NC(=O)c2ccccc2)s1	-17.3%	/
CCOCCOc1nc(C)cc(C)c1S(=O)(=O)c1ccccc1C	-8.3%	-14.3%
Cc1ccccc1N(CC(=O)N/N=C/c1ccc(N(C)C)cc1)C(=O)c1ccccc1	-11.9%	-24.8%
Cc1ccccc1-c1nnc(NC(=O)CSc2nc3ccccc3s2)s1	11.8%	1.0%
COc1cccc(C(=O)Nc2c(C(N)=O)oc3ccccc23)c1	-17.3%	-14.6%
Cc1ccccc1OCCn1cc(C(=O)C(=O)N2CCOCC2)c2ccccc21	-8.3%	-8.0%
COc1ccc2c(c1)CCc1c(C(=O)Nc3cnn(Cc4ccc(Cl)cc4Cl)c3)noc1-2	-28.1%	-26.4%
COc1ccc(S(=O)(=O)NC(C)C(=O)NCc2ccc3c(c2)OCO3)cc1OC (stereo not given)	-6.9%	-12.5%
Cc1cc(Cl)ccc1NC(=O)CCS(=O)(=O)c1ccc2c(c1)CC(C)N2C(=O)C1CC1 (stereo not given)	-17.3%	-10.7%
COc1ccc(-c2cc(C(=O)Nc3cc(C)nn3-c3ccccc3)no2)cc1OC	-2.9%&-6.1%	-13.8%&-1.2%
COc1cc2c(cc1OC)-c1cc(Nc3ccccc3)nc(=O)n1CC2	-17.1%	-8.4%
CCOC(=O)c1cnc(-c2ccc(C(F)(F)F)cn2)[nH]c1=O	-4.5%	i
NC(=O)CN1C(=O)C(O)(CC(=O)/C=C\C=C\c2ccccc2)c2ccccc21 (stereo not given)	?	?
COc1ccc(-c2cc(C(=O)Nc3c(C)nn(Cc4ccccc4C)c3C)no2)cc1	-22.7%	-13.4%
Cn1c(CNC(=O)Nc2cccc(Cl)c2)nnc1SCc1ccccc1	-19.1%	-12.4%
CCC(=O)Nc1cccc(NC(=O)c2cccnc2)c1	-24.1%	-29.0%
COc1cc2[nH]c(=O)n(-c3cccc(Cl)c3)c(=O)c2cc1OC	-1.8%	-15.5%
CS(=O)c1ccccc1COC(=O)Nc1ccc(Cl)cc1 (stereo not given)	-28.7%	/
CCOc1ccccc1NC(=O)Cn1cnc2sc(C)c(S(=O)(=O)N3CCC(C)CC3)c2c1=O	-3.6%	-10.8%

3 compounds out of the list, sorted by length of the SMILES, low to high.
SMILES	Vaccinia Venus	Vaccinia mCherry
CS(=O)c1ccccc1COC(=O)Nc1ccc(Cl)cc1 (stereo not given)	-28.7%	/
COc1cc2[nH]c(=O)n(-c3cccc(Cl)c3)c(=O)c2cc1OC	-1.8%	-15.5%
NC(=O)CN1C(=O)C(O)(CC(=O)/C=C\C=C\c2ccccc2)c2ccccc21 (stereo not given)	?	?

(list continues)
SMILES	Vaccinia Venus	Vaccinia mCherry
COc1ccc(S(=O)(=O)N2CCc3ccccc32)cc1C(=O)NCc1ccco1	-17.6%	-16.7%
CCOC(CCNC(=O)CCC(=O)Nc1ccc2nc(N3CCN(C)CC3)cc(C)c2c1)OCC	-11.2%	-12.0%
CC(=O)Nc1ccc(Sc2ncccc2C(=O)Nc2ccc(F)cc2)cn1	-11.0%	-1.3%
CC(=O)OC1C2CCC3C1(CC(O)[C@@]1(O)[C@@H](CC(O)C1(C)C)[C@]3(C)O)C[C@@]2(C)O (stereo not given in full)	7.5%	-1.7%
O=C(Nc1cccc(Cl)c1)c1csnn1	-5.2%	-0.1%
COC(=O)N1N=C(c2ccccc2)CC1(O)C(F)(F)F (stereo not given)	-18.4%	-8.9%
COc1cc(NC(=O)C2CC(c3cccc(Br)c3)=NO2)cc(OC)c1OC (stereo not given)	-27.2%	?
CCCCc1nc(NCC2CCCO2)c(C#N)c2c1COC(C)(C)C2 (stereo not given)	-7.7%	-13.9%
CCOC(=O)C(=O)Nc1ccc(OC)c(Cl)c1	-4.0%	i
CCc1nnc(NC(=O)CN2CCN(C3CCCCC3)CC2)s1	-4.7%	-23.4%
Cc1ccc(CNc2ncnc3onc(-c4ccc(F)cc4)c23)cc1	-9.1%	-8.4%
CNC(=S)NC1(C)CCS(=O)(=O)C1 (stereo not given)	-13.0%[7.34 µM]	i[7.34 µM]
Cc1ccccc1CC1(CO)CCCN(C(=O)c2ccc3ncccc3c2)C1 (stereo not given)	-15.2%	-12.5%
COc1cc(OC)c(OC)cc1C#N	-19.3%	-13.4%
CCOC(=O)c1c(NC(=O)CSc2nc3ccc(C)cc3[nH]2)sc2c1CC(C)(C)NC2(C)C	?	-24.9%
C#CCOCCOCCOCCNc1nc(N2CCN(C(=O)C([C@@H](C)O)n3cc([C@@H](N)CCCCN)nn3)CC2)nc(N2CCN(C(=O)[C@H](CC(N)=O)n3cc([C@@H](N)C(C)C)nn3)CC2)n1 (stereo not given in full)	-5.8%	-6.8%
O=C(COC(=O)C1CC1)NCCNC(=O)COC(=O)C1CC1	-7.0%	-11.6%
O=C(N/N=C/c1cccs1)c1ccc(NC(=O)c2ccccc2Cl)cc1	-16.9%	i
Cn1c(=S)[nH]c2cc(C(=O)N3CCN(Cc4cccs4)CC3)ccc2c1=O	-17.5%	-27.5%
CCCc1cnc(Nc2nc(C(N)Cc3ccc(OC)cc3)cs2)nc1 (stereo not given)	?	?

By substructure, those above containing a furan ring, fused or not.
SMILES	Vaccinia Venus	Vaccinia mCherry
CCc1nn(CC(=O)N(CC)Cc2ccccc2)c(=O)c2cc3occc3n12	-6.5%	-11.3%
Cn1nnc2c(NCc3ccco3)ncnc21	-16.9%	-14.5%
COc1cccc(C(=O)Nc2c(C(N)=O)oc3ccccc23)c1	-17.3%	-14.6%
COc1ccc(S(=O)(=O)N2CCc3ccccc32)cc1C(=O)NCc1ccco1	-17.6%	-16.7%

Continuation:
SMILES	Vaccinia Venus	Vaccinia mCherry
COc1ccc(OC)c(C2c3c(oc4ccc(C)cc4c3=O)C(=O)N2CCCN(C)C)c1 (stereo not given)	-11.0%	i
COCC(=O)N[C@H]1C=C[C@@H](CC(=O)NCc2ccccc2OC)O[C@@H]1CO	-6.4%	-9.7%
O=C(CN1C(=O)c2ccccc2S1(=O)=O)Nc1ccc(S(=O)(=O)N2CCCCC2)cc1	-6.8%	-12.9%
Cc1cc(=O)n2nc(N3CCCC3C(=O)Nc3ccc(C(C)C)cc3)sc2n1 (stereo not given)	-15.5%	-9.0%
COc1ccc(C2=NS(=O)(=O)N(C)C(C(=O)Nc3ccc(C)cc3)=C2)cc1	-3.2%	i
CCS(=O)(=O)N1CC(=O)N(c2ccc(Cl)cc2C)C(C)(C(=O)NC2CCCCCC2)C1 (stereo not given)	-6.7%	-10.9%
COc1ccc(NC(=O)c2oc3ccccc3c2NC(=O)C2CC2)c(OC)c1	8.6%[7.34 µM]	-5.4%[7.34 µM]
CCOc1cc(C(=O)OC(C)C(=O)Nc2ccc(S(N)(=O)=O)cc2)ccc1OCC(=O)N1CCOCC1 (stereo not given)	-3.4%	-13.4%
COc1ccc(-n2nc(C(=O)NCC(=O)N3CCCCCC3)c3ccccc3c2=O)cc1OC	-8.7%	-25.1%
Cc1ccc(-c2noc(CCC(=O)Nc3ccc4c(c3)OCO4)n2)cc1	-20.6%	-18.5%

Next part, overlapping the part above by two compounds.
SMILES	Vaccinia Venus	Vaccinia mCherry
COc1ccc(-n2nc(C(=O)NCC(=O)N3CCCCCC3)c3ccccc3c2=O)cc1OC	-8.7%	-25.1%
Cc1ccc(-c2noc(CCC(=O)Nc3ccc4c(c3)OCO4)n2)cc1	-20.6%	-18.5%
O=C(NC1CCCCC1)c1cccnc1Sc1ccccc1	-8.4%	-22.0%
CCCN(C)C[C@H]1Oc2cc(C#Cc3ccc(F)cc3)ccc2S(=O)(=O)N([C@H](C)CO)C[C@@H]1C	-6.6%	-15.9%
CCCCNC(=O)c1nc(-c2cnc(C)cn2)oc1-c1ccc(Cl)cc1	-4.0%	-10.8%
O=C(Nc1ccncc1)c1ccc(Cl)c(S(=O)(=O)N2CCc3ccccc32)c1	-25.4%	-19.0%
CN(C)c1ccc(/C=C/c2ccc3ccccc3[n+]2C)cc1	275.1%[activator]	175.5%[activator]
Cc1cccc(C)c1NC(=O)C(c1ccc(C#N)cc1)n1c(=O)c(-c2cc3ccccc3[nH]2)nc2ccccc21 (stereo not given)	-21.3%	i
COc1ccc(Cn2nnc3c(=O)[nH]c(C4CCCN(C(=O)c5ccc(C)cc5)C4)nc32)cc1 (stereo not given)	5.8%	3.5%
CCOc1cc(-c2ccc(N)c(OCC)c2)ccc1N	-13.8%	-22.8%
O=C1CC(Cc2ccccc2)C(=O)N1CCc1ccc2c(c1)OCO2 (stereo not given)	-3.5%	/
COc1cccc(C(C)(O)c2nc(-c3csc4ccccc34)cs2)c1 (stereo not given)	-8.9%	i
O=C1c2ccc(-c3ccc(Cl)c(C(F)(F)F)c3)cc2S(=O)(=O)c2cccc(C(=O)N3CCN(c4ccc(Cl)cn4)CC3)c21	-20.0%	i
CCN(CC)S(=O)(=O)c1ccc2[nH]c(=O)cc(C(=O)NCC(c3ccco3)N3CCCC3)c2c1 (stereo not given)	-13.5%	-14.6%
CC(NC(=O)c1c2c(nc3ccccc13)C(=O)N(C1CCCCC1)C2)c1ccccc1 (stereo not given)	-7.1%	-9.0%
